Screens as filed in PubChem.
D2 ag: Beta-Arrestin HTS for Positive Allosteric Modulators of the Human D2 Dopamine Receptor: Agonists; DiscoveRx PathHunter D2 beta-arrestin, luminescence, 90 min; 100% = 57 uM dopamine signal; activation, % (test concentration not listed); 360,000 tested, 0.084% active; AID 624465, 2012; in the data active = activation above about 40%; inconclusive = about 15% to 40%; inactive = below about 15%; also: compound concentration not given in the record; the text of the record calls up to 30% inactive
Target sequence (P14416 whole entry, looked up): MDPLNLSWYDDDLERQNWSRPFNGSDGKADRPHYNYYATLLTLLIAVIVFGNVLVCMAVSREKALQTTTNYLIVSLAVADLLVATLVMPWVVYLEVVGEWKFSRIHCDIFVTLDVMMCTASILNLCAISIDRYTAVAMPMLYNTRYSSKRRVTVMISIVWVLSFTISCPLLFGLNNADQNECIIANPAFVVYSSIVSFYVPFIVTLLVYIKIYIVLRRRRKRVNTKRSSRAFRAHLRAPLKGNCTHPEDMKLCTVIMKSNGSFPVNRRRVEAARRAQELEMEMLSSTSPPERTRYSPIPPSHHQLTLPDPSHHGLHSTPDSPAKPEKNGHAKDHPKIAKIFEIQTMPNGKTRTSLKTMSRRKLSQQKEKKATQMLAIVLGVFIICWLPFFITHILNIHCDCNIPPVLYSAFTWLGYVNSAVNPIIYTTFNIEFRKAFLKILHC
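Agonist mode: compounds alone added to overnight-plated D2 PathHunter cells for 90 min at 37 C, with 57 uM final dopamine (EC100) defining full response. Beta-arrestin recruitment detected by chemiluminescent reagent, read after 1 h at ambient temperature.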
D2 PAM: Beta-Arrestin HTS for Positive Allosteric Modulators of the Human D2 Dopamine Receptor: Potentiators. 360,000 tested, 0.23% active. potentiation, % (no concentration beside the values). D(2) dopamine receptor (Homo sapiens), P14416. DiscoveRx D2 beta-arrestin cells, luminescence, 90 min; 100% = 57 uM dopamine signal; active = potentiation of 50% or more; inconclusive = 30% to 50%; inactive = 30% or less;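 also: compound concentration not given in the record; tested on top of an EC20 dose of dopamine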
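PathHunter D2 cells, attached overnight at 37 deg C, received compound in DMSO plus dopamine at EC20 (50 nM final) for 90 min at 37 deg C. Beta-arrestin recruitment was read as luminescence after 1 h with detection reagent at ambient temperature.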
TRPML1 ag: qHTS for Agonists of the Human Mucolipin Transient Receptor Potential 1 (TRPML1) | 410,000 tested, 0.12% active | AID 624414, 2012 | Mucolipin-1 (Homo sapiens), Q9GZU1 | TRPML1-expressing cells, Ca2+ dye fluorescence, FDSS; host cell line not named in the record; reference of the full effect not given here | activation, % (test concentration not listed); in the data active = activation above about 50%; inconclusive = about 30% to 50%; inactive = below about 30%; also: 0% is about no effect; the text of the record puts the active cut at 80%
Target sequence (Q9GZU1 whole entry, looked up): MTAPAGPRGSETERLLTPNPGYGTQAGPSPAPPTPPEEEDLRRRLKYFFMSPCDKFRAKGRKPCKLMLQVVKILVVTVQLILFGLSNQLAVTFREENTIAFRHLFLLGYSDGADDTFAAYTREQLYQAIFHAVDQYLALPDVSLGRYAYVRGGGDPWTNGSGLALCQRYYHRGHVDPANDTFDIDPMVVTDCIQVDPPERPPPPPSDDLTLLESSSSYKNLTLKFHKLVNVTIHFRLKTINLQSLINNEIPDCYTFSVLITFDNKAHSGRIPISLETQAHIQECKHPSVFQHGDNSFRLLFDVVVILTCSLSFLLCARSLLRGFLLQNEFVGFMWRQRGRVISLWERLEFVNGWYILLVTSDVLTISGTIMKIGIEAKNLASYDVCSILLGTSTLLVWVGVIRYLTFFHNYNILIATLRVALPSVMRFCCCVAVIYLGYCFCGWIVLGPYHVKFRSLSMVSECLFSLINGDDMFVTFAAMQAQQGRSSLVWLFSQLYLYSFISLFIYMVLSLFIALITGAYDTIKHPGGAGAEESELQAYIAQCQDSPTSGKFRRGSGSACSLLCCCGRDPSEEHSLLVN
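Agonist activity was taken from a 110 s kinetic Ca2+ dye read on the FDSS after pinning compounds onto TRPML1-DL cells. The cells were seeded at 1,500/well with Tet inducer, incubated about 16 h, then dye-loaded at room temperature.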
PINK1 modulator: A Quantitative High throughput Screen to Identify Chemical Modulators of PINK1 Expression; PINK1 immunofluorescence, high-content cytometry, 24 h; Potency, µM (highest dose often 76.6 µM), for inactives: at the top dose activation (PINK1 increase), hits mostly activators; 410,000 tested, 0.2% active; active = well fitted activation curve with a large enough effect; inconclusive = small, poorly fitted or top-dose-only effect; inactive = flat fitted curve, though single readings scatter; cell line not stated here;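 also: potency is read from the fitted curve at half-maximal effect; % of control where 0% means no effect; nearly all actives have a fitted effect of over 65% in size; a mitochondrial uncoupler was the plate control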
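Readout is PINK1 immunofluorescence, quantified alongside mitochondrial, cell and nuclear markers by laser-scanning microplate cytometry. Cells from a stable line were exposed to compound titrations (5 concentrations) for 24 hours, with CCCP controls.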
TRPML1 blocker: qHTS for Inhibitors of the Human Mucolipin Transient Receptor Potential 1 (TRPML1) | Mucolipin-1 (Homo sapiens), Q9GZU1 | TRPML1-inducible cells, Ca2+ dye fluorescence, FDSS; hits give low values; inhibition of EC80 agonist-evoked calcium signal | activity change, negative = inhibition, % (test concentration not listed) | 390,000 tested, 0.02% active; in the data active means activity change below about -50%; inconclusive means about -30% to -50%; inactive means above about -30%;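 also: stimulus is agonist 54-4 at its EC80 concentration; % is scaled to controls: 0 for no effect and ±100 for the full control effect; compound concentration not given in the record; the text of the record puts the active cut at -80%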
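Calcium fluorescence in TRPML1-DL cells induced overnight with Tet: a 110 s read after compound pin addition, then a 110 s antagonist read after challenge with 54-4 at 4 uM final (EC80).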
Six1-Eya2 blk: qHTS Assay for Inhibitors of the Six1/Eya2 Interaction; Homeobox protein SIX1 (Homo sapiens) + Protein phosphatase EYA2 (Homo sapiens), …; AlphaScreen GST-Six1/His-Eya2 binding, biochemical; hits give low values; control for the full effect not named in the record; activity change, % (test concentration not listed); 360,000 tested, 0.56% active; AID 651725, 2012; in the data active = activity change below about -65%; inconclusive = about -30% to -65%; inactive = above about -30%; also: % is scaled to controls: 0 for no effect and ±100 for the full control effect; compound concentration not given in the record
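Compounds are tested against tagged Six1 and Eya2 proteins bridged by glutathione donor and nickel acceptor beads; after a one-hour incubation at 37 °C without light, AlphaScreen emission is recorded.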
An asterisk follows results filed as active; ? = inconclusive; . = no result given; & = joins results of further samples; [ ] = remark or other dose. Compounds as they come; any-hit rate near 1%.

No. | canonical_smiles | D2 PAM | D2 ag | Six1-Eya2 blk
1 | CCC1CN(C(=O)N2CCC(C(=O)NCCc3ccccc3OC)CC2)c2ccccc2O1 (stereo unspecified) | -6 | -2.9 | 1
2 | CCC/C(=N\NC(=O)C1CCCC1)c1ccccc1 | -9 | -4.7 | 8
3 | CCCCn1c(N)c(N(CCC(C)C)C(=O)c2oc3ccc(OCC)cc3c2C)c(=O)[nH]c1=O | -9 | -1.4 | -2
4 | O=C1COc2ccc(C(=O)COC(=O)COc3ccccc3[N+](=O)[O-])cc2N1 | -4 | 0.6 | -4
5 | C=CCc1ccccc1OCC(=O)N/N=C/c1ccc(OC(C)=O)cc1OC(C)=O | 3 | 1.4 | ?
6 | Cn1c(/C=C/c2cccc([N+](=O)[O-])c2)c([N+](=O)[O-])c(=O)n(C)c1=O | -8 | -3.1 | -22
7 | CC(C)=CCC/C(C)=C/CC/C(C)=C/COc1ccc2ccc(=O)oc2c1 | -15 | 1.7 | 8
8 | CC(C)CCOC(=O)/C(=C/c1ccco1)NC(=O)/C=C/c1ccccc1 | -26 | -0.5 | 5
9 | C[C@H](CO)N1C[C@H](C)[C@@H](CN(C)S(=O)(=O)c2cn(C)cn2)Oc2ccc(NC(=O)NC3CCCCC3)cc2C1=O | . | -0.6 | 5
10 | CCOc1ccccc1CNC(=O)CCc1c(C)nn(-c2ccc(N3CCOCC3)nn2)c1C | . | . | .

No. | TRPML1 ag | PINK1 modulator | TRPML1 blocker
1 | -1.4 | 0.7% | -1
2 | 1.9 | 2.8% | -27
3 | -0.4 | 6.8% | -9
4 | 0.3 | 2.8% | 9
5 | 2.1 | 0.6% | -11
6 | 0.6 | -1.2% | -12
7 | -0.9 | ? | 6
8 | -0.5 | . | 8
9 | -0.9 | -0.8% | 36
10 | 0.0 | -0.7% | -9

The listing continues:
No. | canonical_smiles | D2 PAM | D2 ag | Six1-Eya2 blk
11 | Cc1ccc(NC(=O)CCCCCN2C(=O)c3ccccc3C2=O)nc1 | -7 | 0.7 | -3
12 | O=C(O)COc1ccc2oc3c(c2c1)CCCC3 | -3 | -4.4 | 9
13 | COc1ccc(C(CNC(=O)c2cccc([N+](=O)[O-])c2)N2CCOCC2)cc1 (stereo unspecified) | . | . | .
14 | CCn1c2ccccc2c2cc(NC(=O)COc3ccccc3)ccc21 | -4 | -0.7 | 6
15 | COc1ccccc1N1CCN(Cc2cnc3ccc(Cl)cn23)CC1 | -9 | -3.7 | 0
16 | CCOc1ccc(S(=O)(=O)Nc2nc3cc(OC)ccc3s2)cc1 | -1 | -3.2 | -3
17 | O=C(COC(=O)CNC(=O)c1ccccc1)Nc1nnc(-c2ccccc2)o1 | -1 | -3.2 | ?
18 | Cc1ccc(S(=O)(=O)NCCC(=O)Nc2cccc(S(=O)(=O)N3CCCC3)c2)cc1C | -10 | 0.7 | -9
19 | O=S(=O)(c1ccccc1)c1nc(-c2cccc(Cl)c2)oc1N1CCOCC1 | -8 | -4.5 | -9
20 | CCCc1nc2ccc(Cl)cn2c1Cc1ccsc1 | -8 | -4.9 | -9

No. | TRPML1 ag | PINK1 modulator | TRPML1 blocker
11 | -0.5 | 1.1% | 4
12 | 0.6 | 1.1% | -9
13 | 0.1 | -0.4% | 25
14 | 4.6 | 3.7% | 26
15 | -0.3 | 3.2% | 26
16 | 0.6 | 4.9%[38.3 µM] | 4
17 | -0.3 | -0.4% | -2
18 | 1.5 | -1.5% | -12
19 | 2.1&0.8 | 0.3%&-1.7% | 28&29
20 | 1.4 | 4.9% | 1

Next section
No. | canonical_smiles | D2 PAM | D2 ag | Six1-Eya2 blk
21 | O=C(NCCCN1CCCC1)Nc1cccc2ccccc12 | -20 | 2.2 | -2
22 | COc1ccccc1NS(=O)(=O)c1ccc(C)c(C(=O)NC2CCN(Cc3ccccc3)CC2)c1 | -41 | -4.4 | -7
23 | COC(=O)c1cc2oc(C)cc2n1CC(=O)Nc1ccc(C)c(C)c1 | -7 | -1.0 | -10
24 | Cc1cc2oc(C(=O)Nc3ccc(S(N)(=O)=O)cc3)c(C)c2cc1Cl | -1 | 5.0 | 0
25 | CN(C(=O)c1ccccc1C(=O)OCC(=O)c1ccc(F)c(F)c1)C1CCCCC1 | -12 | -4.9 | 0
26 | O=C(CSc1nnc(-c2cccc(Br)c2)o1)N1CCOCC1 | 5 | -0.9 | 10
27 | OC(COCc1ccccc1)Cn1cnc2ccccc21 (stereo unspecified) | -4 | -2.2 | 2
28 | CCc1c(C(=O)Nc2ccc(C)c(C)c2)[nH]c(C)c1C(C)=O | -8 | 0.1 | -13
29 | Cc1ccc(-c2nnc(SCC(=O)Nc3ccc(S(=O)(=O)N4CCCCCC4)cc3)o2)cc1 | -11 | -1.2 | 2
30 | CC(=O)Nc1ccccc1OCCOc1ccc(Br)cc1 | 8 | -4.4 | 0

No. | TRPML1 ag | PINK1 modulator | TRPML1 blocker
21 | -1.7 | 2.0% | -4
22 | 0.3 | 1.9% | -25
23 | 1.6 | 10%[38.3 µM] | 6
24 | 0.7 | 5.9% | -1
25 | -0.6 | -0.4% | 18
26 | -0.2 | -1.0% | -2
27 | 2.6 | 3.8%[38.3 µM] | -15
28 | 1.5 | 2.0% | -27
29 | -0.4 | 20%[38.3 µM] | 4
30 | 2.9 | 2.0% | 9

The listing continues:
No. | canonical_smiles | D2 PAM | D2 ag | Six1-Eya2 blk
31 | O=C(CCNS(=O)(=O)c1ccc(Br)cc1)NCc1ccc(F)cc1 | -23 | -3.3 | 2
32 | COc1ccc(OC)c(C(=O)c2nc3c(n2O)CCCCC3)c1 | -11 | -1.8 | -1
33 | O=C(c1ccco1)N(Cc1cccc([N+](=O)[O-])c1)c1ccc(Br)cc1 | -11 | -4.5 | -13
34 | CCOC(=O)c1sc(=S)n(-c2ccc(F)c(F)c2)c1N | -11 | -3.5 | -1
35 | Cc1c(NC(=O)C(C)(C)C)cccc1-c1nc2ccccc2s1 | . | . | .
36 | CCC(CC)C(=O)Nc1c2c(nn1-c1ccc(OC)cc1)CS(=O)C2 (stereo unspecified) | -14 | -0.4 | -1
37 | C[C@H](CO)N1C[C@H](C)[C@@H](CN(C)C)Oc2c(NC(=O)Cc3ccccc3)cccc2C1=O | -5 | -1.5 | 2
38 | O=C(COC(=O)c1n[nH]c2ccccc12)NCCc1ccc(Cl)cc1 | -1 | 6.0 | 0
39 | c1ccc(OCCNc2ccn3nc(-c4cccs4)cc3n2)cc1 | 11 | 12 | ?
40 | O=C(NC1CCN(Cc2ccccc2)CC1)c1ccc(CS(=O)c2ccccc2Cl)o1 (stereo unspecified) | -29 | -0.2 | -4

No. | TRPML1 ag | PINK1 modulator | TRPML1 blocker
31 | -0.1 | -0.2% | -6
32 | -0.6 | -5.4%[38.3 µM] | -18
33 | 2.6 | 6.1% | 80
34 | -0.3 | -2.2%[38.3 µM] | -2
35 | 2.3 | 1.1% | 0
36 | 3.8 | -2.8% | -14
37 | -0.2 | 2.8% | 26
38 | 0.1 | 1.7% | 8
39 | 0.0 | 15% | .
40 | 0.3 | 0.5% | -17

Some of these compounds in order of their number in D2 PAM, high to low.
item | SMILES | D2 PAM
38 | O=C(COC(=O)c1n[nH]c2ccccc12)NCCc1ccc(Cl)cc1 | -1
33 | O=C(c1ccco1)N(Cc1cccc([N+](=O)[O-])c1)c1ccc(Br)cc1 | -11
40 | O=C(NC1CCN(Cc2ccccc2)CC1)c1ccc(CS(=O)c2ccccc2Cl)o1 (stereo unspecified) | -29

The results go on:
No. | canonical_smiles | D2 PAM | D2 ag | Six1-Eya2 blk
41 | COc1ccc(C2=C(C)C(=O)N(Cc3ccc(C(=O)Nc4cc(C)ccc4C)cc3)S2(=O)=O)cc1 | . | . | .
42 | COc1ccc(-c2cc([N+](=O)[O-])ccc2OCC(=O)N(C)CC(=O)Nc2ccc(C)cc2)cc1 | -26 | -4.0 | -14
43 | CCCn1c(=O)c2sccc2n2c(CCCC(=O)Nc3ccccc3OCC)nnc12 | . | . | .
44 | CCCCN1C(=O)CC(SC2CC(=O)N(CCCC)C2=O)C1=O (stereo unspecified) | -3 | -3.5 | 12
45 | CC(C)=C(NC(=O)c1ccccc1Cl)C(=O)NCCc1nc2ccccc2[nH]1 | -11 | -1.6 | 3
46 | COc1cccc(NC(=O)CSC2=NN3CCCC(=O)N=C3S2)c1 | -2 | -1.2 | -21
47 | CCOC(=O)C1=C(C)NC2=C(C(=O)C(C(=O)OCC)C(c3ccccc3OC)C2)C1c1ccccn1 (stereo unspecified) | -28 | -3.4 | 6
48 | COc1ccc(CCNC(=O)/C=C/c2ccco2)cc1 | -3 | 1.1 | -8
49 | CCOc1ccccc1NC(=O)c1cc2c(=O)n(Cc3cccnc3)ccc2nc1C | . | . | .
50 | NC(=O)c1nsc(C(=O)N(c2ccccc2F)C(C(=O)NCc2ccccc2)c2ccc(O)cc2)c1N (stereo unspecified) | 28 | ? | -9

No. | TRPML1 ag | PINK1 modulator | TRPML1 blocker
41 | 0.6 | 3.7% | -5
42 | 1.2 | 0.1% | 23
43 | 0.3 | 0.3% | -1
44 | 0.9 | 0.7% | 18
45 | -0.2 | 0.5% | 1
46 | 1.0 | 0.8% | 5
47 | -0.4 | -0.2% | -15
48 | 1.4 | -3.5% | -10
49 | 0.7 | -0.5% | -28
50 | -0.2 | -1.1% | -13

(listing goes on)
No. | canonical_smiles | D2 PAM | D2 ag | Six1-Eya2 blk
51 | COc1cccc(-n2c(=S)sc3c(=O)n(-c4ccccc4OC)c(SCC4OCCO4)nc32)c1 | -2 | 0.6 | 9
52 | O=C(CSc1nc2sc3c(c2c(=O)n1-c1ccccc1)CCCC3)N/N=C/c1ccc(C(=O)O)cc1 | -1 | -3.4 | 16
53 | C/C(=N\NC(=O)CSCc1ccccc1Cl)c1cccc(NC(=O)c2ccccc2)c1 | 1 | -1.4 | -1
54 | COC(=O)c1ccc(-n2c(C)cc(C(=O)COC(=O)CNS(=O)(=O)c3ccc(C)cc3)c2C)cc1 | 3 | -5.4 | -16
55 | O=C(Nc1nccs1)c1ccccc1N=Cc1ccccc1 | -16 | -1.2 | 24
56 | Cc1ccc(C(=O)Nc2ccccc2C(=O)O)cc1S(=O)(=O)NC1CCCCC1 | -9 | 3.2 | -3
57 | CNC(=O)c1c(NC(=O)C2=COCCO2)sc(C)c1C | 6 | -1.1 | -1

No. | TRPML1 ag | PINK1 modulator | TRPML1 blocker
51 | -0.7 | 3.5% | -10
52 | -0.4 | 6.6% | -14
53 | 4.2 | 3.5% | -5
54 | 0.5 | -1.4% | 0
55 | 1.9 | 0.7% | -13
56 | 0.4 | 3.0% | 12
57 | -0.4 | -1.4% | 19
